TRPV1 PAM: HTS Assay for Compounds that Act as Potentiators of the Vanilloid Receptor 1; Transient receptor potential cation channel subfamily V member 1 (Homo sapiens), Q8NER1; TRPV1-expressing cells, Fluo-8 calcium influx, capsaicin EC20 potentiation; host cell line not named in the record; control for the full effect not named in the record; potentiation, % at 8.33 µM; actives 0.02% (n = 320,000); active means potentiation above 80%; inconclusive means 30% to 80%; inactive means below 30%; further: 0% is about no effect
Target sequence (Q8NER1 whole entry, looked up): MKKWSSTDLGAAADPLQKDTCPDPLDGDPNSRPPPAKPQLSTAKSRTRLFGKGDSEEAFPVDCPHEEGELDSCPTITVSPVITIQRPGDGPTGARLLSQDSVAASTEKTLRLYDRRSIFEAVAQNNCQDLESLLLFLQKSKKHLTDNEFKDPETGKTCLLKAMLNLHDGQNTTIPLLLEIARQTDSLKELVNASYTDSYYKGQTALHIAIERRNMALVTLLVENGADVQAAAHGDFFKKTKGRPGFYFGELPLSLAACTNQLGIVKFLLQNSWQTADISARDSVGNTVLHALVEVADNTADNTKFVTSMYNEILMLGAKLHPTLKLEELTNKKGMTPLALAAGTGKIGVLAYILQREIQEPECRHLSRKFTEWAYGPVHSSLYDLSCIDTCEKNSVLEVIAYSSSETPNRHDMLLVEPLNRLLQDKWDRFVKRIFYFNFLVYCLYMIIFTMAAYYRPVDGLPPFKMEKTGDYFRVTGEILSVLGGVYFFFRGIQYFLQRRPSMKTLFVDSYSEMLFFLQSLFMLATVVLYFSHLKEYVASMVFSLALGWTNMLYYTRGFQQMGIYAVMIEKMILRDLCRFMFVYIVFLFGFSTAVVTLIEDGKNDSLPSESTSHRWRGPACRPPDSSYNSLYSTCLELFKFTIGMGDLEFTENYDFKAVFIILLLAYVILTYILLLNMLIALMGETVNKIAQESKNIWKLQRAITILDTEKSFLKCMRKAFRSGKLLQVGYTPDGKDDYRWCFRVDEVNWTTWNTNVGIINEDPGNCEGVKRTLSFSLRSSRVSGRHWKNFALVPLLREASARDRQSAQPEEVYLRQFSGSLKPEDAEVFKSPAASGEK
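Fluo-8 calcium influx in TRPV1-expressing cells, kinetic read (ex 480/em 520 nm). Compound added and read 3 min for agonist activity, followed by capsaicin at EC20 final and 2 min further read for enhancement.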
ClpP mod: qHTS Assay for Activators of ClpP; actives 1.9% (n = 340,000); Potency, µM (series often up to 57.5 µM), for the others: top-dose activity change, negative = active; purified B. subtilis ClpP, FRET peptide cleavage, 20 min; ATP-dependent Clp protease proteolytic subunit (Bacillus subtilis (strain 168)), P80244; active = well fitted falling curve with a large enough effect; inconclusive = small, poorly fitted or top-dose-only effect; inactive = no such curve, though single readings can be large or run the other way; further: potency means the concentration at half of the fitted maximal effect; the source files actives as falling curves though it sought activators and does not explain the sign; nearly all actives have a fitted effect of over 65% in size; many hits overshoot -100%
Target sequence (P80244 whole entry, looked up): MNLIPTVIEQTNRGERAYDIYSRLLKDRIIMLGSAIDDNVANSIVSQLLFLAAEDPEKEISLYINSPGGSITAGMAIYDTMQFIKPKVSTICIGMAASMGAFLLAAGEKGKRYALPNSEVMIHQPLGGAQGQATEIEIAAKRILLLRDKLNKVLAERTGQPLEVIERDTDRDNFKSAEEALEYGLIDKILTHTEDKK
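Buffer: 100 mM Tris/HCl pH8, 100 mM KCl, 0.05% low protease BSA, 2.5% glycerol, 0.01% Tween-20. ClpP 10 microg/mL final; 20 min RT; delta FRET normalized to ADEP and DMSO controls.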
Sfp inh: qHTS Assay for Inhibitors of Bacillus subtilis Sfp phosphopantetheinyl transferase (PPTase); 4'-phosphopantetheinyl transferase ffp (Bacillus subtilis), Q9F4F7; Biochemical Sfp PPTase activity, qHTS; Potency, µM, inactives show max response, negative = inhibition, hits mostly inhibitors; actives 3.5% (n = 310,000); active means well fitted inhibition curve with a large enough effect; inconclusive means small, poorly fitted or top-dose-only effect, or another doubt; inactive means no such curve, though single readings can be large or run the other way;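 further: the enzyme is Sfp with the accession as filed and its product quenches rhodamine fluorescence; potency means the concentration at half of the fitted maximal effect; 0% = enzyme reaction without inhibitor and -100% = no enzyme wells; top concentration of the series not given in the record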
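Buffer: 50 mM Hepes-Na pH 7.6, 10 mM MgCl2, 0.01% Nonidet P-40, 0.01% BSA. Enzyme 15 nM, pre-exposed to compound 15 min; substrates then added and fluorescence change tracked over 30 min.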
Menin-MLL FL inh: qHTS Assay for Inhibitors Targeting the Menin-MLL Interaction in MLL Related Leukemias: Competition With Fluorescein Labeled MLL-derived Peptide; FP activity change, % at 61.4 µM; Fluorescence polarization, fluorescein-MLL peptide displacement from menin; 290,000 tested, under 10 active; inconclusive = falling polarisation curve, or a change in total fluorescence; inactive = total fluorescence flat and polarisation flat or rising; no compound was filed as active; the % refers to the polarisation; negative = inhibition;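 further: % of control where 0% means no effect; inhibitors lower the polarisation; unlabelled MLL peptide was the positive control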
TRPML1 agonist: qHTS for Agonists of the Human Mucolipin Transient Receptor Potential 1 (TRPML1). TRPML1-expressing cells, Ca2+ dye fluorescence, FDSS; host cell line not named in the record; reference of the full effect not given here. activation, % (concentration not given with the values). actives 0.12% (n = 410,000); in the data active = activation above about 50%; inconclusive = about 30% to 50%; inactive = below about 30%; further: 0% is about no effect; the text of the record puts the active cut at 80%
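Kinetic FDSS Ca2+ read in Tet-induced TRPML1-DL cells (ABD Ca8 dye plus quencher, 45-90 min RT loading): baseline, then compound, then 110 s agonist window; EC80 agonist 54-4 at 4uM final added afterwards for a 110 s antagonist window.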
TRPML1 blocker: qHTS for Inhibitors of the Human Mucolipin Transient Receptor Potential 1 (TRPML1). Mucolipin-1 (Homo sapiens), Q9GZU1. TRPML1-inducible cells, Ca2+ dye fluorescence, FDSS; hits give low values; inhibition of EC80 agonist-evoked calcium signal. activity change, negative = inhibition, % (concentration not given with the values). actives 0.02% (n = 390,000). AID 624415, 2012; in the data active means activity change below about -50%; inconclusive means about -30% to -50%; inactive means above about -30%;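 further: stimulus is agonist 54-4 at its EC80 concentration; on the % scale 0 is the no-effect control and ±100 the full control effect; compound concentration not given in the record; the text of the record puts the active cut at -80%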
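TRPML1-DL cells, Tet-induced overnight (~16 h, 37 °C) at 1,500 cells/well, were loaded with Ca8 no-wash dye plus quencher for 45-90 min at room temperature. Compounds were pinned during FDSS kinetic reading; agonist 54-4 at EC80 (4 uM final) then added.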
PINK1 modulator: A Quantitative High throughput Screen to Identify Chemical Modulators of PINK1 Expression; PINK1 immunofluorescence, high-content cytometry, 24 h; Potency, µM (highest dose often 76.6 µM), without a hit: at the highest dose activation (PINK1 increase), hits mostly activators; actives 0.2% (n = 410,000); AID 624263, 2012; active = well fitted activation curve with a large enough effect; inconclusive = small, poorly fitted or top-dose-only effect; inactive = flat fitted curve, though single readings scatter; cell line not stated here;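 further: potency means the concentration at half of the fitted maximal effect; % of control where 0% means no effect; nearly all actives have a fitted effect of over 65% in size; a mitochondrial uncoupler was the plate control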
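A stable cell line was treated with compounds at 5 concentrations for 24 hours, with CCCP as control. PINK1 levels and mitochondrial localization were measured by immunofluorescence with mitochondrial, cell and nuclear markers after fixation, read by laser-scanning cytometry.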
Active calls of the source: *; ? = inconclusive; . = not tested or not shown; & = joins results of further samples; [ ] = another dose, or the depositor's remark. Hits appear at their usual frequency, and some 4.4% of all compounds hit somewhere here.

canonical_smiles | TRPV1 PAM | ClpP mod | Sfp inh | Menin-MLL FL inh | TRPML1 agonist | TRPML1 blocker | PINK1 modulator
Cc1ccc(NC(=O)CCc2c(C)nc3nc(C)nn3c2C)c(Cl)c1 | . | -6.7% | . | . | -0.4 | 16 | 2.9%
CCN(C(=O)COC(=O)c1ccccc1Nc1ccccc1)c1c(N)n(Cc2ccccc2)c(=O)[nH]c1=O | . | -18% | . | . | 0.1 | 21 | 0.3%
c1coc(CN(Cc2ccco2)c2ncnc3c2oc2ccccc23)c1 | -6 | -15% | 28µM* | 8.6 | 1.5 | 3 | 0.9%
CCCCCC1NC(=O)NC1CCCCCC(=O)O (configuration not stated) | . | -1.0% | 8% | 2.1 | -0.8 | -12 | -0.8%
COc1ccccc1N1CCN(C(=O)c2n[nH]c3ccccc23)CC1 | -7 | -0.4% | 14% | 1.7 | 1.4 | -18 | -0.5%
COc1ccc(C(=O)C[n+]2cc(Br)cc3ccccc32)cc1 | . | -6.2% | . | . | 2.2 | . | 24%
COC(=O)c1cc(NS(=O)(=O)c2ccc3c(c2)c(=O)n(C)c(=O)n3C)cc(C(=O)OC)c1 | -5 | -1.4% | -4% | . | -0.5 | 22 | 3.3%
COc1ccc(CSc2nnc(C)n2N)cc1[N+](=O)[O-] | 3 | -29% | 15% | -4.2 | -0.5 | 17 | -1.1%
CCCCCCN(C(=O)CCCCCN1C(=O)NC(c2ccc(-c3ccccc3)cc2)C(C(=O)OCc2ccccc2)=C1C)C(C(=O)NCCCC)C1CCCCC1 (configuration not stated) | -2 | . | 21% | 2.7 | . | . | .
CCN(CC)S(=O)(=O)c1ccc(Cl)c(OC)c1 | 13 | -1.4% | 11% | 4.4 | 1.9 | -6 | -3.7%
CC(=O)c1ccc(OCC(=O)NC2CCCCCC2)cc1 | -22 | -3.0% | . | . | -0.2 | 36 | -0.9%
CS/C(=N\S(=O)(=O)c1ccc(Cl)cc1)c1ccccc1 | -25 | -0.8% | 19% | 4.2 | 0.5 | 2 | ?
O=C(Nc1ccccc1Cl)c1ccccc1Cc1ccccc1 | -5 | -0.8% | -1% | 4.7 | 2.1 | -11 | 3.2%
Cc1cnc(CNc2nc(-c3ccccc3Cl)nc3ccccc23)cn1 | . | . | 6% | 3.7 | . | . | -0.5%
O=C(CCc1ccccc1)NC1CCSC1=O (configuration not stated) | 0 | 0.5% | 0% | 4.4 | -0.7 | 4 | 0.2%[38.3 µM]
CC(C)CSc1nc2ccccc2c(=O)[nH]1 | 13 | -2.4% | 23% | 0.8 | -1.3 | -22 | 0.5%
Cn1cnnc1SCC(=O)NC1CCCCCC1 | 0 | -2.4% | 1% | . | -0.1 | 6 | 0.1%
COc1cccc(OC)c1OCC(O)CN1CCN(c2ccccc2F)CC1 (configuration not stated) | ? | 0.1% | 12% | -6.0 | 1.2 | -14 | -0.7%
Cc1ccc2c(c1)C1CN(C)CCC1N2C(=O)COc1ccc(N(C)C(=O)C(C)(C)C)cc1 (configuration not stated) | 3 | -2.7% | 20% | -9.7 | -0.1 | -26 | -0.8%
NC(=O)NOCc1ccc(Cl)cc1Cl | 10 | . | 16% | -2.1 | -0.4 | -7 | 0.1%
CC(=O)OCC(=O)Nc1ccc([N+](=O)[O-])cc1Cl | 26 | . | 16% | -0.5 | -0.5 | -3 | 1.0%
CCCN(C(=O)c1cccc(S(=O)(=O)N2CCN(C)CC2)c1)c1c(N)n(Cc2ccccc2)c(=O)[nH]c1=O | 5 | -7.4% | . | . | 0.6 | 3 | -1.8%
CC1=C(C(=O)N2CCCCCC2)CC(CC(=O)NCCc2ccccn2)C(=O)N1Cc1ccccc1 (configuration not stated) | . | 0.5% | . | . | 0.4 | . | 0.2%
CCOCCCN(C(=O)Cn1nnc(-c2ccc(OC)c(OC)c2)n1)C(CC)C(=O)NC1CCCC1 (configuration not stated) | -19 | . | 4% | 1.2 | 2.2 | 26 | 2.4%
Cc1ccc(OC(C)C(=O)OCC(=O)Nc2sccc2C(N)=O)cc1 (configuration not stated) | . | -2.7% | . | . | 1.8 | 7 | -0.3%
Cc1cc(NC(=O)CSc2nnc(-c3ccco3)n2Cc2ccco2)no1 | 2 | 1.2% | 10% | 1.5 | 1.3 | -3 | 2.9%[38.3 µM]
C=CC(C)N1C(=O)S/C(=C\c2ccc(N3CCOCC3)cc2C)C1=O (configuration not stated) | -9 | -7.6% | -11% | ? | 1.1 | 1 | 14%
CC(C)(CO)NC(=O)C12CC3CC(CC(Br)(C3)C1)C2 | 6 | 20µM* | 17% | 2.6 | 0.0 | 4 | -0.7%
CCOc1ccc(CCNC(=O)C(O)c2ccccc2)cc1 (configuration not stated) | 2 | -0.5% | 10% | -0.3 | -0.6 | 1 | -2.3%
Cn1cc(CN2CCCC(C(=O)c3cc(F)ccc3F)C2)c2ccccc21 (configuration not stated) | 8 | . | 3% | -4.4 | -0.9 | -7 | 10%

canonical_smiles | TRPV1 PAM | ClpP mod | Sfp inh | Menin-MLL FL inh | TRPML1 agonist | TRPML1 blocker | PINK1 modulator
CN(C(=O)COC(=O)c1ccc([N+](=O)[O-])cc1Cl)C1CCCCC1 | -13 | 2.0% | -3% | 2.8 | 3.2 | -5 | 0.4%
CCOc1ccccc1N(CC(=O)Nc1ccccc1C(=O)NCc1ccco1)S(C)(=O)=O | -3 | -3.5% | 8% | 4.2 | 0.6 | -3 | .
CSc1ccc(CCNC(=O)CCn2c(=O)c3cccn3c3ccc(F)cc32)cc1 | . | ? | . | . | 1.4 | -14 | 2.5%
Cc1c(C(=O)OCC(=O)N2C(C)CCCC2C)oc2ccccc12 (configuration not stated) | -15 | -22% | 9% | . | 0.4 | -2 | 0.4%
CCN(CC)S(=O)(=O)c1cccc(NC(=O)COC(=O)CCC(=O)c2cccs2)c1 | 3 | 0.6% | 11% | 1.7 | 0.1 | 22 | 0.8%
Cc1cc(N/C=C/C(=O)c2ccccc2)ccc1Br | -2 | -3.4% | 7% | 0.8 | . | . | 2.6%
O=C1C(Cc2ccccc2)Nc2ncnc(N3CCc4ccccc4C3)c2N1Cc1ccc(Cl)cc1 (configuration not stated) | 22 | -24% | . | . | 1.2 | 35 | -1.4%
CC(=O)c1ccc([N+](=O)[O-])c(CS(=O)(=O)c2ccccc2)c1 | 4 | -0.1% | 2% | -4.2 | 3.9 | -3 | -2.6%
O=[N+]([O-])c1ncccc1OCc1ccc(Cl)c(Cl)c1 | -1 | . | -13% | 0.8 | -0.3 | -3 | -2.9%
CCOc1ccc(-c2noc(-c3csc([C@@H]4O[C@H](CO)[C@H](O)[C@H](O)[C@H]4O)n3)n2)cc1 | . | -2.1% | . | . | -0.4 | . | -1.0%
COC(=O)c1cc2sccc2n1Cc1nc(-c2ccc(C)cc2)oc1C | . | -3.9% | . | . | -0.3 | 63 | 1.9%
Cc1ccc(CC(NC(=O)c2ccccc2)C(=O)NC(CC(C)C)C(=O)O)cc1 (configuration not stated) | -8 | . | -9% | -4.9 | -0.9 | -2 | 0.1%
O=[N+]([O-])c1cccc(-c2ccc(CN3CCN(c4ccccc4)CC3)o2)c1 | 4 | 0.3% | ? | -1.2 | -0.2 | -3 | 2.9%
COCCNC(=O)CCCn1c(=O)c2cc(OC)c(OC)cc2n(CC(=O)Nc2ccc(F)cc2)c1=O | 3 | 3.9%&4.2% | 11% | -6.5 | 1.7&-0.9 | -10&15 | 0.1%&0.7%
Cc1ccc2nc(Nc3ccc(Cl)cc3)c3nncn3c2c1 | 0 | 6.5% | -3% | 8.1 | 1.0 | -30 | -1.0%
O=c1cc(-c2ccccc2)c2cc(Cl)ccc2[nH]1 | 8 | -3.2% | 10% | -1.2 | 0.5 | 16 | -1.4%
Cc1ccc(CNC(=O)c2ccc(Cn3c(SCc4ccccc4F)nc4cccnc43)cc2)cc1 | . | 4.6% | . | . | 4.4 | 4 | 1.7%
CC1CCN(c2nncc3ccccc23)CC1 | 2 | 4.7% | 11% | -1.2 | 0.2 | -10 | 0.1%
CC1CCCN(C(C(=O)NC2CCCCC2)c2cc3c(cc2[N+](=O)[O-])OCO3)C1 (configuration not stated) | -8 | ? | 10% | -1.2 | -0.3 | -11 | 11%
O=[N+]([O-])c1ccc(SCCc2ccccn2)cc1 | -17 | -0.4% | ? | 3.2 | -0.1 | 9 | 0.5%
CC(NC(=O)c1ccc(C23CC4CC(CC(C4)C2)C3)cc1)C(=O)O (configuration not stated) | 1 | . | 15% | -0.2 | -0.5 | -15 | -0.7%
C=CC[C@H](CC(=O)NCCO)C(=O)N[C@H](COC(=O)[C@@H](CC=C)CC(=O)OC(C)(C)C)Cc1ccccc1 | . | -0.8% | . | . | 0.1 | 10 | 1.6%
N#Cc1ccc(NC(=O)Cn2cnc(S(=O)(=O)N3CCOCC3)c2)cc1 | 22 | 0.7% | 8% | . | -0.1 | -8 | -0.4%
Cc1ccnn1Cc1cc(C(=O)O)c2ccccc2n1 | 19 | . | 2% | -2.0 | 0.3 | -18 | -1.9%
Cc1ccc(CNC(=O)C2CC(c3cccc([N+](=O)[O-])c3)=NO2)o1 (configuration not stated) | 13 | -3.3% | 45µM* | 3.5 | 0.6 | 2 | 3.4%
Cc1cc(C)cc(C(N)=Nc2cccc(C#N)c2)c1 | 29 | . | 7% | -3.1 | -0.7 | 3 | 3.6%

An excerpt from above in order of the Sfp inh value, smallest number first.
molecule	Sfp inh
O=[N+]([O-])c1ncccc1OCc1ccc(Cl)c(Cl)c1	-13%
Cc1cc(C)cc(C(N)=Nc2cccc(C#N)c2)c1	7%
NC(=O)NOCc1ccc(Cl)cc1Cl	16%
